From PubChem
Vif A3G: inhibitors of Vif binding to APOBEC3G peptide, primary screen, biochemical, TR-FRET, GST-Vif 1-94, biotin-A3G peptide, dose response retest (AID 1117319) | Virion infectivity factor (Human immunodeficiency virus type 1 group M subtype B (isolate … | TR-FRET GST-Vif / biotin-A3G peptide binding; higher % means a stronger effect; test concentration not given here; strong numbers were not always called active | inhibition, %, or IC50 in µM where a hit was titrated | actives 0.57% (n = 260,000);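 active = above the screen mean plus three standard deviations and confirmed in dose response; inconclusive = results disagree or hit not tested in dose response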;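 also: Vif residues 1-94 fused to GST binding biotinylated APOBEC3G peptide 110-148; 0% = full assay without inhibitor and 100% = GST in place of GST-Vif; retest series ran down from 100 µM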
LANA-H2A inh: blockers of LANA interaction with H2A/H2B – biochemical, FP readout, HTS, primary screen; Protein LANA1 (Human herpesvirus 8 type P (isolate GK18)), Q9QR71; cell-free LANA-H2A/H2B peptide, fluorescence polarization; inhibition, % (test concentration not listed); actives 0.6% (n = 320,000); AID 2629, 2010; in the data active = inhibition mostly above about 10%, no sharp cut-off; inactive = mostly below about 6.7%;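 also: stock transfer was 7.5 nL into about 10 µL; 0% = median of vehicle wells and 100% = median of positive control wells; one replicate is shown; the record names a cut of 25% in any replicate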
Beta apoptosis: inhibitors of cytokine-induced beta cell apoptosis, primary screen, luminescence; INS-1E cytokine-induced death, ATP luminescence, 48 h; percent of positive-control rescue, neutral wells zero; protection from apoptosis, % (no concentration beside the values); actives 0.8% (n = 300,000); AID 435005, 2010;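 active = all replicates at 75% or more, or half of them and the mean; inconclusive = half reach 75% but not the mean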;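 also: 0% = cytokine-treated negative control wells and 100% = positive control rescue; higher means more ATP so stronger rescue from cytokine killing; wells of about 40 µL received 100 nL stock; the first replicate is given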
RanGTP-Imp inh: inhibitors of RanGTP-importin-beta interaction, primary screen, biochemical, FRET, CFP-Ran, YFP-importin-beta, homogeneous | actives 1.1% (n = 300,000) | inhibition, % (test concentration not listed) | cell-free CFP-Ran/YFP-importin-beta FRET ratio | AID 2216, 2009;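 active = most replicates above 15%; inconclusive = exactly half above 15%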;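 also: 0% = DMSO wells and 100% = Ran loaded with GDP instead of GTP; wells of about 40 µL received 100 nL stock; the first replicate is given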
AF4-AF9 inh: inhibitors of AF4 peptide binding to AF9, primary screen, biochemical, AlphaScreen, biotin-AF4 peptide, FLAG-AF9, single point | Protein AF-9 (Homo sapiens), P42568 | inhibition, % at 10 µM | actives 0.47% (n = 350,000);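 active = every replicate reaching a set inhibition limit, whatever the replicate mean, cut at about 25% in these data; inconclusive = mean inhibition reaches that limit but some replicates miss it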;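 also: 0% = plate neutral control median and 100% = total signal loss; the record names both 10 and 1 µM as test concentration; the first replicate is given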
Target sequence (P42568 whole entry, looked up): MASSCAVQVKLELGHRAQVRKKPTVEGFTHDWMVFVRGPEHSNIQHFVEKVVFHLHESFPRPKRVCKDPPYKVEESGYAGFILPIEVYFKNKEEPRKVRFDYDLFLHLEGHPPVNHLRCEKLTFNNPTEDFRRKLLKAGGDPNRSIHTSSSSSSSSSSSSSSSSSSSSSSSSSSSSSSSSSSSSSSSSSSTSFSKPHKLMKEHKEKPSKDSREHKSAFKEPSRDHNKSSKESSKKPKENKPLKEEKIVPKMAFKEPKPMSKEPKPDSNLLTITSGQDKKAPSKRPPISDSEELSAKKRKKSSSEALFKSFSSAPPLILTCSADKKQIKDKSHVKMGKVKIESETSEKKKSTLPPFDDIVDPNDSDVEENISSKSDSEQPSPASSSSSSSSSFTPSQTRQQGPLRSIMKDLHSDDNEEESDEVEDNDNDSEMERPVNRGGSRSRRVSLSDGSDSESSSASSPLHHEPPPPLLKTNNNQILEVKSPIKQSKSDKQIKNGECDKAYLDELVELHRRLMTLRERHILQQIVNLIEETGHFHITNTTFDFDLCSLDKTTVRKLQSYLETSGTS
Calb FLC: C. albicans growth inhibition with fluconazole, primary screen, CaCi-2 strain, Alamar Blue fluorescence. C. albicans CaCi-2 (fluconazole-resistant clinical isolate) + fluconazole, 48 h. growth inhibition, % (test concentration not listed). actives 0.57% (n = 300,000);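 active = most replicates above 75%; inconclusive = exactly half above 75%; inactive = most below 75%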;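 also: all wells also contain fluconazole at 8 µg/ml as a sub-toxic cotreatment; 0% = median of DMSO wells and 100% = median of geldanamycin control wells; wells of about 8 µL received 7.5 nL stock; the first replicate is given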
T cruzi repl: inhibitors of intracellular T. cruzi growth, primary screen, luminescence, NIH3T3 host cells; T. cruzi beta-gal in NIH3T3, 90 h; AID 1885, 2009; inhibition, % (no concentration beside the values); actives 1.4% (n = 300,000);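 active = mean inhibition across valid replicates above about 55%, limit read from the data; inconclusive = mean below that limit but half or more replicates reach it; inactive = mean below it, under half of replicates reach it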;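 also: signal also drops with host cell toxicity which is not excluded here; 0% = plate median of DMSO wells and 100% = zero luminescence signal; higher percent means less beta-gal luminescence so fewer parasites; stock transfer was 50 nL into about 50 µL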
A1 inh: caspase 3/7 activation in MEF A1-2A-BIM cells, primary screen, A1 inhibitor project, cell-based, luminescence, HTS. Caspase-Glo 3/7 luminescence, 3 h; percent of clofoctol response, vehicle zero. caspase activation, % (test concentration not listed). actives 0.066% (n = 330,000). AID 2462, 2010;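 active = over half of replicate activation scores above 10%, or exactly half above 10 with the replicate mean above 10; inconclusive = replicate mean below 10 yet half the replicates above 10; inactive = over half of replicates below 10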;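 also: wells of about 30 µL received 50 nL stock; many hits fall short of the cut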
Active calls of the source: *. Rows are unselected, and some 4.3% of all compounds hit somewhere here.

For O=C(COC(=O)CCNS(=O)(=O)c1ccccc1)Nc1ccc(OC(F)F)cc1 the results were Vif A3G 1%, LANA-H2A inh -5.6, Beta apoptosis 0, AF4-AF9 inh -0.2 and A1 inh -0.1.
`NNC(=O)c1[nH]c2ccc(Cl)cc2c1-c1ccccc1` gave Vif A3G 0%, LANA-H2A inh -2.2, RanGTP-Imp inh -0.6, AF4-AF9 inh -2.0, Calb FLC 23, T cruzi repl 0 and A1 inh -2.0.
Screening CCCCc1ccc(S(=O)(=O)Nc2cc(C)on2)cc1 returned Vif A3G 4%, LANA-H2A inh 6.8, Beta apoptosis -3, RanGTP-Imp inh -2.7, Calb FLC 2, T cruzi repl -11 and A1 inh 0.3.
`CC(C)Cc1nc2sc3c(SCC(N)=O)ncnc3c2c2c1CCC2` gave Vif A3G inactive, LANA-H2A inh -3.3, Beta apoptosis -2, RanGTP-Imp inh 10, AF4-AF9 inh 4.8, Calb FLC 16 and A1 inh -0.2.
For CNC(=O)c1sc(-c2ccc(Cl)cc2)nc1C the results were Vif A3G 29%, LANA-H2A inh -2.5, Beta apoptosis -6, RanGTP-Imp inh -0.5, Calb FLC -2, T cruzi repl 7 and A1 inh 1.3.
O=C(c1ccc2c(c1)OCCCO2)N1CCCCC1 was read as Vif A3G -33%, LANA-H2A inh 1.4, Beta apoptosis -4, RanGTP-Imp inh 1.4, AF4-AF9 inh -0.5, Calb FLC 0, T cruzi repl -10 and A1 inh 0.4.
O=C(Nc1cccc(S(=O)(=O)N2CCCCCC2)c1)C1CCN(C(=O)c2ccc(Cl)cc2)CC1 was read as Vif A3G -12%, LANA-H2A inh 3.0, Beta apoptosis 3, RanGTP-Imp inh 3.1, AF4-AF9 inh -3.9, Calb FLC 10, T cruzi repl 1 and A1 inh 0.5.
O=C(O)CCC(=O)Nc1ccc(SSc2ccc(NC(=O)CCC(=O)O)cc2)cc1 was read as Vif A3G 0%, LANA-H2A inh -2.7, Beta apoptosis -2, RanGTP-Imp inh -1.4, AF4-AF9 inh -3.2, Calb FLC -1, T cruzi repl -6 and A1 inh -0.2.
Screening CC(=O)N(CC(C)C(=O)O)c1c(I)cc(I)c(N)c1I (stereo not given) returned LANA-H2A inh 2.8, Beta apoptosis 0, AF4-AF9 inh -2.0 and A1 inh 0.4.
Screening CC(=O)N1CCOc2ccc(S(=O)(=O)N3CCC(C(=O)NCc4ccc(C)cc4)CC3)cc21 returned LANA-H2A inh -0.7, Beta apoptosis -2, RanGTP-Imp inh 1.6, AF4-AF9 inh -0.4, Calb FLC 2, T cruzi repl -15 and A1 inh -0.4.
For Cc1nnsc1S(=O)c1ccc(F)cc1 (stereo not given) the results were Vif A3G -12%, LANA-H2A inh 1.2, Beta apoptosis -2, RanGTP-Imp inh 4.7, AF4-AF9 inh -3.2, Calb FLC 0, T cruzi repl -6 and A1 inh -0.5.
`CC(C)C(C(=O)NCC1CCCO1)N(CC1CCCO1)C(=O)CNS(=O)(=O)c1ccccc1` (stereo not given) gave LANA-H2A inh -0.7, Beta apoptosis -3, RanGTP-Imp inh 3.6, AF4-AF9 inh -0.5, Calb FLC -4, T cruzi repl -2 and A1 inh 0.6.
For COCCOC(=O)c1c(C)oc2ccc(OCc3ccccc3)cc12 the results were Vif A3G 3%, LANA-H2A inh -2.3, Beta apoptosis -9, RanGTP-Imp inh -2.2, AF4-AF9 inh -20, Calb FLC 11, T cruzi repl 6 and A1 inh -1.4.
Screening Cc1ccc(Sc2cc(C(=O)NCCCN(C)C)c3ccccc3n2)cc1 returned LANA-H2A inh 1.9, Beta apoptosis -2, RanGTP-Imp inh 11, AF4-AF9 inh 4.7, Calb FLC -16, T cruzi repl 56* and A1 inh 1.4.
`COc1ccc(N2C(=O)N3[C@H](c4cccc(C)c4)[C@@H]4C(=O)N(Cc5ccccc5)C(=O)[C@@H]4[C@]3(Cc3ccccc3)C2=O)cc1` gave LANA-H2A inh -0.8, Beta apoptosis 9, RanGTP-Imp inh -0.8, AF4-AF9 inh -3.9, Calb FLC 8, T cruzi repl 18 and A1 inh 1.9.
For CCN(CC)S(=O)(=O)c1ccc2c(c1)oc(=O)n2CC(=O)N(C)C1CCCCC1 the results were LANA-H2A inh -0.7, Beta apoptosis -6, RanGTP-Imp inh 5.3, AF4-AF9 inh -2.1, Calb FLC -5, T cruzi repl 5 and A1 inh 0.5.
`COCCCNC(=O)c1cc2c(=O)n3cc(C)ccc3nc2nc1NCC1CCCO1` (stereo not given) gave LANA-H2A inh 1.5, RanGTP-Imp inh 173*, Calb FLC -37, T cruzi repl 10 and A1 inh -1.0.
Cc1ccc(S(=O)(=O)CCC(=O)NCc2ccco2)cc1 was read as Vif A3G 4%, LANA-H2A inh -4.8, Beta apoptosis -14, RanGTP-Imp inh 1.7, Calb FLC 5, T cruzi repl -9 and A1 inh 0.5.
For Cc1ccc(CC2CC(=O)N(c3cc(C)on3)C2=O)cc1 (stereo not given) the results were Vif A3G -5%, LANA-H2A inh -0.7, Beta apoptosis -4, RanGTP-Imp inh 1.5, AF4-AF9 inh -3.5, Calb FLC -2, T cruzi repl -10 and A1 inh 0.4.
Cn1c(SCc2nn[nH]n2)nc2c1c(=O)n(Cc1ccccc1Cl)c(=O)n2C was read as Vif A3G 3%, LANA-H2A inh -4.3, Beta apoptosis -5, RanGTP-Imp inh 2.6, Calb FLC inconclusive, T cruzi repl -16 and A1 inh -0.6.
For COC(=O)c1cc(NC(=O)C2CC2)cc(C(=O)OC)c1 the results were Vif A3G -5%, LANA-H2A inh 1.6, Beta apoptosis 1, RanGTP-Imp inh 1.0, Calb FLC 8, T cruzi repl -19 and A1 inh 0.1.
COc1ccc(NC(=O)CSc2nnc(-c3cc(C)[nH]n3)n2N)cc1OC was read as LANA-H2A inh 4.1, Beta apoptosis -3, RanGTP-Imp inh 3.1, AF4-AF9 inh 1.4, Calb FLC 13, T cruzi repl -7 and A1 inh 0.1.
Screening COc1ccc(C2/C(=C(/O)c3ccc4c(c3)CC(C)O4)C(=O)C(=O)N2CCN2CCOCC2)cc1OC (stereo not given) returned RanGTP-Imp inh -0.8, AF4-AF9 inh 0.2, Calb FLC -7 and T cruzi repl 1.
`O=C(c1ccc(CSc2ccccc2)cc1)N1CCN(c2ccccc2)CC1` gave Vif A3G -1%, LANA-H2A inh -2.7, Beta apoptosis 1, RanGTP-Imp inh -1.1, AF4-AF9 inh -1.2, Calb FLC -5, T cruzi repl -7 and A1 inh 0.1.
For CCCNC(=O)C(=O)N/N=C/c1cccs1 the results were Vif A3G -1%, LANA-H2A inh -4.2, Beta apoptosis -7, RanGTP-Imp inh 0.8, AF4-AF9 inh -0.9, Calb FLC -23, T cruzi repl 0 and A1 inh -0.6.
COc1ccc(CNC(=O)C2CCN(c3cc(C(=O)Nc4cccc(OC)c4)ccn3)CC2)cc1 was read as LANA-H2A inh -3.6, Beta apoptosis -1, RanGTP-Imp inh -0.9, AF4-AF9 inh -1.5, Calb FLC 19, T cruzi repl 1 and A1 inh 0.5.
Screening CCN(CC)S(=O)(=O)c1csc(C(=O)OCC(=O)c2ccccc2)c1 returned Vif A3G 4%, LANA-H2A inh 0.4, Beta apoptosis -7, RanGTP-Imp inh 4.3, Calb FLC 3, T cruzi repl -5 and A1 inh -1.5.
CC(=O)n1cc(/C=N/NC(=O)c2cccc(O)c2)c2ccccc21 was read as Vif A3G 1%, LANA-H2A inh -2.3, Beta apoptosis -8, RanGTP-Imp inh -1.1, AF4-AF9 inh 6.7, Calb FLC 5, T cruzi repl 0 and A1 inh -1.4.
Screening CSCc1cc(N2CCOCC2)nc(SCc2ccc(Cl)cc2Cl)n1 returned Vif A3G 22%, LANA-H2A inh -4.0, Beta apoptosis -3, RanGTP-Imp inh -5.7, Calb FLC -3, T cruzi repl 48 and A1 inh -0.9.
COc1cc(OC)c(C(=O)OCC(=O)Nc2ccccc2Cl)cc1OC was read as LANA-H2A inh -0.8, RanGTP-Imp inh -1.8, AF4-AF9 inh -1.9, Calb FLC 5, T cruzi repl -9 and A1 inh 1.5.
Screening O=c1c2c3c(sc2ncn1/N=C/c1ccc([N+](=O)[O-])o1)CCCC3 returned Vif A3G 9%, LANA-H2A inh -0.2, Beta apoptosis 21, RanGTP-Imp inh 4.7, Calb FLC 12, T cruzi repl -29 and A1 inh 0.4.
For Cc1ccc(CNC(=O)[C@]2(C)CCC[C@@]3(C)C4CC[C@@]5(C)C[C@]4(CCC32)CC5=O)cc1 (stereo not given in full) the results were LANA-H2A inh 3.2, Beta apoptosis 9, AF4-AF9 inh -9.4 and A1 inh 1.4.
CCCCOCCCNC(=O)C1c2ccccc2Oc2ccccc21 was read as LANA-H2A inh -2.3, Beta apoptosis -2, RanGTP-Imp inh 2.4, AF4-AF9 inh 3.7, Calb FLC -38, T cruzi repl 4 and A1 inh -0.7.
For CN1CCc2c(sc3c2C(=O)NC(c2ccccc2)N3)C1 (stereo not given) the results were LANA-H2A inh 1.1, Beta apoptosis -1, RanGTP-Imp inh 5.2, Calb FLC 16, T cruzi repl -6 and A1 inh 0.4.
Cn1c(-c2sc3cc(C(F)(F)F)cnc3c2-c2ccccc2)n[nH]c1=S was read as Vif A3G -10%, LANA-H2A inh 3.2, Beta apoptosis -2, RanGTP-Imp inh 4.5, Calb FLC -5, T cruzi repl -1 and A1 inh 1.4.
Screening COc1ccccc1NS(=O)(=O)c1cc(NC(=O)Cn2cnc3c2c(=O)n(C)c(=O)n3C)ccc1C returned Vif A3G 22%, LANA-H2A inh -0.2, Beta apoptosis 1, RanGTP-Imp inh 0.9, AF4-AF9 inh 2.6, Calb FLC 2, T cruzi repl -1 and A1 inh 1.6.
